Yeast UUG start = modulators of yeast start codon fidelity, primary screen, whole organism, S. cerevisiae, single point, plate reader. actives 0.13% (n = 350,000). S. cerevisiae UUG-firefly luciferase reporter, luminescence/redox ratio. activity score, % at 18.7 µM;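 active = replicate mean at a twofold rise or more, about +100% in these data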;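 also: firefly luciferase made from a UUG start codon reports start codon fidelity; reporter light over untreated wells divided by growth signal over untreated wells; some hits fall short of that in this replicate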
HIV Env fusion = inhibitors of HIV-1 Env-driven cell-cell fusion, primary screen, HeLa-JRFL effector, CEM21 target cells, luciferase | inhibition, % at 12.3 µM | actives 1.1% (n = 360,000) | AID 651610, 2012;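 active = mean replicate inhibition score of at least 50 and every replicate individually at or above 50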;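 also: 0% = plate neutral controls and 100% = maraviroc near 300 nM; one replicate is shown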
PABP polyA inh = PABP poly(A) RNA binding inhibitors, primary screen, biochemical, fluorescence polarization, uHTS; inhibition, % at 35 µM; AID 2014, 2009; actives 1% (n = 290,000);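 active = 50% or more with normal probe brightness, or confirmed in later tests; about a fifth of its hits are not listed in these tables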;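 also: calls also rest on retests at 20 µM and on dose response follow-up; controls were probe without protein and protein plus probe with vehicle; some compounds called inactive have numbers as strong as hits; many hits fall short of the cut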
Rce1 inhib = yeast Rce1p protease inhibitors, primary screen, biochemical, fluorescence, cell-free homogeneous; calls only; CAAX prenyl protease 2 (Saccharomyces cerevisiae (strain ATCC 204508 / S288c)), Q03530; actives 0.27% (n = 290,000); yeast membranes, quenched prenylated peptide cleavage fluorescence;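 active = fall in fluorescence gain of 50% or more versus controls, with final raw signal at or below 3038400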;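 also: plate controls were neutral control wells for no effect and wells lacking membranes for full effect; tested at 10 µM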
Target sequence (Q03530 whole entry, looked up): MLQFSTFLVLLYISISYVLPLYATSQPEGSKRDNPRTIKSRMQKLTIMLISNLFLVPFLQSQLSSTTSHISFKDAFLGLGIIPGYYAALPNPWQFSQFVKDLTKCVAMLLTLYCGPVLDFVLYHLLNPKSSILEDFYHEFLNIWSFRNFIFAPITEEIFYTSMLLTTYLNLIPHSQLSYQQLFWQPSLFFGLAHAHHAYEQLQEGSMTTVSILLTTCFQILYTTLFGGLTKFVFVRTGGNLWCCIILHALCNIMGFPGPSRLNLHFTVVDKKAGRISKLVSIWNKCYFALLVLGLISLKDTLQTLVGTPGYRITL
CSC inhib = cancer stem cell viability inhibitors, primary screen, luminescence; actives 1.1% (n = 300,000); AID 2717, 2010; cancer stem cell-like cells viability; inhibition, % at 7.5 µM;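 active = mean at 75% or more and at least half the replicates too; tested in HMLE shEcad cells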;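 also: 0% = median of negative and 100% = median of positive control wells; the first replicate is given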
eIF4H inh = human eIF4H binding inhibitors, primary screen, translation initiation inhibitor project, biochemical, uHTS, fluorescence polarization | eIF4H fluorescence polarization binding assay | Eukaryotic translation initiation factor 4H (Homo sapiens), Q15056 | actives 0.94% (n = 290,000) | inhibition, % at 35 µM | AID 2012, 2009;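 active = 50% or more with normal probe brightness, or confirmed in later tests; about a fifth of its hits are not listed in these tables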;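 also: calls also rest on retests at 20 µM and on dose response follow-up; 0% = protein and probe with vehicle and 100% = probe without protein; strong numbers were not always called active; many hits fall short of the cut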
MT1-MMP act inh = blockers of MT1-MMP proenzyme processing, primary screen, HT1080 RFP-PRO-GFP cells, GFP/RFP fluorescence; Matrix metalloproteinase-14 (Homo sapiens), P50281; GFP/RFP ratio fluorescence, overnight; percent of plate control window, DMSO zero; GFP/RFP ratio change, % at 20 µM; actives 0.061% (n = 360,000); AID 651647, 2012;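 active = GFP/RFP ratio change of at least 30% with cell ATP level not reduced by more than half and red fluorescence within 50% of control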; also: strong numbers were not always called active
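Assay system: HT1080 RFP-PRO-GFP cells. Benchmarks: DMSO vehicle wells and RFP-L50D-GFP reporter cell wells. Times: overnight cell settling, then overnight compound exposure, 37 °C, 5% CO2. Compound: 20 µM single dose, 1% DMSO. Read-out basis: GFP/RFP fluorescence ratio.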
eIF4H inh retest = also measured in eIF4H inh; calls as there; inhibition, %; compound at 20 µM; confirmation average;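 mean of two retest wells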
PABP polyA inh retest = recorded beside PABP polyA inh, whose call it bears; inhibition, %; compound at 20 µM; confirmation repeats;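 mean of two retest wells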
MT1-MMP act inh RFP = second read-out of MT1-MMP act inh, no call of its own (marks repeat the call); RFP signal change, %; measured here: RFP expression control read;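 0 = vehicle wells; hits needed this value within 50% of zero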
Active calls of the source: *; i = inactive; · = no result given.

SMILES	Yeast UUG start	HIV Env fusion	PABP polyA inh	Rce1 inhib	CSC inhib	eIF4H inh	MT1-MMP act inh	MT1-MMP act inh RFP	others
CCOc1ccc(C(=O)NC(=S)NCc2cccnc2)cc1	-7	-138	-5	i	·	8	4	7
O=S1(=O)N=C(Nc2nncs2)c2ccccc21	-18	·	16	i	-14	-7	-3	6
COc1ccc(-c2nnc(N3CCC(C)CC3)c3ccccc23)cc1	16	-33	-4	i	10	-9	-3	-10
COCCN1CCN(C(=O)C2CCC(=O)N(Cc3cccc(C(F)(F)F)c3)C2)CC1 (stereo not given)	-9	-16	-13	i	-15	-2	-1	4
O=C(C1CCC(CNc2c(N3CCCCC3)c(=O)c2=O)CC1)N1CCCCC1 (stereo not given)	-16	7	4	i	-4	-8	-2	4
COc1nc(NCc2ccco2)nc(N2CCC(C)CC2)n1	-5	·	-6	i	-1	8	1	1
Cc1ccc(S(=O)(=O)NC(C)C(=O)OCC(=O)Nc2sccc2C(N)=O)cc1 (stereo not given)	-16	-5	·	·	·	·	0	3
CN1CCN(c2ccc3c(c2)C2CC3CCN2C(=O)OCc2ccccc2)CC1 (stereo not given)	-6	-45	·	·	·	·	-1	-3
CCOc1cc(/C=C2\SC(N3CCCCC3)=NC2=O)ccc1O	6	-10	-12	i	-14	-6	·	·
COc1ccc(NC(C)=O)cc1S(=O)(=O)N1CC=C(c2ccccc2)CC1	-13	·	·	·	7	·	3	-3
Cc1[nH]c2ccc(OC(=O)N3CCOCC3)cc2c1C(=O)OC(C)C	0	·	10	i	3	2	2	-10
CC1(C)Cc2noc(N)c2C(C)(C)N1OC(=O)c1cccs1	-4	-3	0	i	-3	7	1	5
COC(=O)c1ccc(N)nc1	·	21	18	i	-2	35	0	4
CSc1ccc(CCNC(=O)c2cc(C)nn2-c2ccccc2)cc1	-17	16	2	i	5	-2	2	-6
C/C(=N\NC(=O)OC(C)(C)C)c1ccc(-n2ccnc2)cc1	-14	-6	13	i	-9	-7	3	1

Reprinted from the part before: 4 entries; new compounds follow.
SMILES	Yeast UUG start	HIV Env fusion	PABP polyA inh	Rce1 inhib	CSC inhib	eIF4H inh	MT1-MMP act inh	MT1-MMP act inh RFP	others
CC1(C)Cc2noc(N)c2C(C)(C)N1OC(=O)c1cccs1	-4	-3	0	i	-3	7	1	5
COC(=O)c1ccc(N)nc1	·	21	18	i	-2	35	0	4
CSc1ccc(CCNC(=O)c2cc(C)nn2-c2ccccc2)cc1	-17	16	2	i	5	-2	2	-6
C/C(=N\NC(=O)OC(C)(C)C)c1ccc(-n2ccnc2)cc1	-14	-6	13	i	-9	-7	3	1
CCOC(=O)C1CCN(C(=O)c2cn(CCOC)c(=O)c3c2c2ccccc2n3C)CC1	15	·	-16	i	·	-5	-2	2
CC(C)c1nnc(NC(=O)CCC2CCCCC2)s1	0	-13	-8	i	4	-1	0	-5
O=C(CC1(c2ccc(Cl)cc2)C2CC3CC(C2)CC1C3)NCCO (stereo not given)	·	15	8	i	18	5	-1	2
Cc1ccc(C(=O)N/C(=C\c2ccc(-c3cccc([N+](=O)[O-])c3)o2)C(=O)NC(C)(C)C)cc1	·	1	12	i	0	-8	-2	-7
Cc1cc(C(=O)c2cccs2)c(N)s1	-9	·	39	i	0	21	-4	8
Cn1c(CN2CCN(c3cccc(Cl)c3)CC2)nc2ccccc21	-16	-33	-1	i	10	-2	-1	3
COc1cccc(C(NC(C)=O)c2nc(-c3cccc(C(F)(F)F)c3)cs2)c1 (stereo not given)	2	4	·	·	·	·	-2	-3
C/C(=N\NC(=O)Cc1cc(=O)[nH][nH]1)c1cccc([N+](=O)[O-])c1	·	4	12	i	-2	53	8	5	eIF4H inh retest=-8;PABP polyA inh retest=2
O=C(Cn1nc(C(=O)O)c2ccccc2c1=O)Nc1cccc(S(=O)(=O)N2CCOCC2)c1	15	·	·	·	-10	·	-2	2
Cc1ccc(C(=O)NCC(=O)OCCCOC(=O)CNC(=O)c2ccc(C)cc2)cc1	·	0	·	i	-11	·	-3	2
CCOCCCN(C)C1CCN(C(=O)c2oc3ccccc3c2NC(=O)Cc2ccc(F)cc2)CC1	-2	1	-10	i	19	-17	-4	-1
CCC(=O)N1CCc2cc(OC)c(OC)cc2C1COc1ccc(C(=O)OC)cc1 (stereo not given)	7	26	-5	i	-8	-5	16	-5
O=C(Nc1nc2ccc(F)cc2s1)C1CCCO1 (stereo not given)	-23	-99	-4	i	·	7	-1	-1
COc1ccc(OCCNC(=O)/C=C/c2ccccc2)cc1	·	16	-18	·	-3	-4	4	-6
Cc1c(C(=O)NCCSCc2ccccc2)cccc1[N+](=O)[O-]	-5	19	3	i	-5	-6	5	2

Quoted at random: six records from the list, in no set order.
SMILES	Yeast UUG start	HIV Env fusion	PABP polyA inh	Rce1 inhib	CSC inhib	eIF4H inh	MT1-MMP act inh	MT1-MMP act inh RFP	others
C/C(=N\NC(=O)Cc1cc(=O)[nH][nH]1)c1cccc([N+](=O)[O-])c1	·	4	12	i	-2	53	8	5	eIF4H inh retest=-8;PABP polyA inh retest=2
CCOC(=O)C1CCN(C(=O)c2cn(CCOC)c(=O)c3c2c2ccccc2n3C)CC1	15	·	-16	i	·	-5	-2	2
O=C(CC1(c2ccc(Cl)cc2)C2CC3CC(C2)CC1C3)NCCO (stereo not given)	·	15	8	i	18	5	-1	2
CCOCCCN(C)C1CCN(C(=O)c2oc3ccccc3c2NC(=O)Cc2ccc(F)cc2)CC1	-2	1	-10	i	19	-17	-4	-1
O=C(Cn1nc(C(=O)O)c2ccccc2c1=O)Nc1cccc(S(=O)(=O)N2CCOCC2)c1	15	·	·	·	-10	·	-2	2
Cn1c(CN2CCN(c3cccc(Cl)c3)CC2)nc2ccccc21	-16	-33	-1	i	10	-2	-1	3

New compounds follow:
SMILES	Yeast UUG start	HIV Env fusion	PABP polyA inh	Rce1 inhib	CSC inhib	eIF4H inh	MT1-MMP act inh	MT1-MMP act inh RFP	others
CC1CCCC(NC(=O)CC2Nc3ccccc3NC2=O)C1C (stereo not given)	-2	·	2	i	-6	-2	2	3
COC(=O)[C@@H]1CCCN1C(=O)CCc1nnc(CCC2CCCCC2)o1	·	-56	-9	i	6	1	-2	1
N#Cc1c(-c2ccccc2)nc(SCc2ccc([N+](=O)[O-])cc2)[nH]c1=O	-11	5	8	·	4	-4	7	3
COc1ccc(NC(=S)NC(=O)c2ccccc2Cl)cc1	-11	-40	-2	i	-4	-3	3	0
COc1ccccc1C(=O)C1CCCN(C(=O)CCc2ccccn2)C1 (stereo not given)	-13	6	-3	i	-10	0	1	5

Assay outcomes as filed in PubChem BioAssay.
